Compound activity deposited in PubChem by SRMLSC.
H5N1 antiviral – antiviral screen in MDCK cells, H5N1 avian flu; cytopathic effect, luminescence, 72 h; active compounds read high; no value below 0 was filed and about half of the inactive calls have no number; reference of the scale not given here; inhibition, % at 50 µM; 96,000 tested, 0.07% active; AID 740; in the data active = inhibition above about 25%
* marks the source's active call; other numbers are inactive results; i = inactive. A portion of the library. The share of hits here may be higher or lower than overall.

Structure | H5N1 antiviral
COc1ccc2cnn(Cc3ccccc3)c(=O)c2c1OC | i
Cc1ccccc1NC(=O)C1CC(=O)N(c2ccc3c4c(cccc24)CC3)C1 (stereo unspecified) | i
c1ccc(CNc2nc3ccccc3n2CCN2CCOCC2)nc1 | 1.1
C=C(C)COc1ccc(-c2[nH]ncc2-c2ccc(OC)c(OC)c2)c(O)c1 | i
Cc1ccccc1-n1c(=O)c(C#N)cc2c(=O)n3ccccc3nc21 | 0.8
Cc1ccc(C(=O)OCC(=O)NCc2ccc3c(c2)OCO3)s1 | 0.3
COc1cccc(/C(O)=C2/C(=O)C(=O)N(c3cc(C)on3)C2c2cccs2)c1 (stereo unspecified) | i
N#C/C(=C\C1CC2C=CC1C2)c1nc2ccccc2[nH]1 (stereo unspecified) | 1.2
CCOC(=O)N1CCC(c2nc3ccccc3[nH]2)CC1 | i
Cc1cccc(OCCCC(=O)NC(C)c2ccccc2)c1 (stereo unspecified) | 0.5
NC(=O)c1nn(-c2ccccc2)nc1N | 0.3
N/C(Cn1nnc(-c2ccccc2)n1)=N\O | 0.9

Structure | H5N1 antiviral
O=C(NCCSCc1ccco1)Nc1cccc(Cl)c1 | 0.8
COc1ccc(N=C2NC(=O)S/C2=C\c2ccc(N(C)C)cc2)cc1 | 0.8
O=P(Nc1ccccc1)(Nc1ccccc1)Oc1ccc(Cl)cc1 | i
CCCC(C(=O)NC1CCCCC1)N(Cc1ccco1)C(=O)CNS(=O)(=O)c1ccccc1 (stereo unspecified) | i
CC(=O)Nc1ccc2c(c1)nc(CCN1CCN(C)CC1)n2C | i
COc1ccc(S(=O)(=O)N(CCc2ccccc2)CC(=O)O)cc1Cl | 1.7
COc1cc2c(cc1NC(=O)COC(=O)C1CC(=O)N(Cc3ccco3)C1)oc1ccccc12 (stereo unspecified) | 0.6
Cc1ccc2cc(CN(C(=O)c3ccco3)c3ccccc3C)c(=O)[nH]c2c1 | i
CCOC(=O)Cn1c(=S)[nH]c2c(oc3ccc(Cl)cc32)c1=O | i
Cn1ccs/c1=N\S(=O)(=O)c1ccc(Br)cc1 | 1.0
C=CCNC(=S)NNC(=O)C(CCC(C)C)CC(C)O (stereo unspecified) | 0.2
CC1CCN(c2ncccc2C(=O)O)CC1 | i

Structure | H5N1 antiviral
CC(C)NS(=O)(=O)c1ccc(OCC(=O)Nc2ccccc2F)cc1 | i
Cc1ccc(N2CC(C(=O)OCC(=O)C(C)(C)C)CC2=O)cc1C (stereo unspecified) | 1.1
CCCCCCN1C=CC(=C/C=C(\C#N)C(=O)OCC)C=C1 | 1.3
NC(=O)Cn1c2[n+](c3ccccc31)CC(O)CS2 (stereo unspecified) | i
O=C(CN1CCOCC1)Nc1ccccc1NC(=O)C1CCN(c2ncccn2)CC1 | 0.4
CCCC(C)NC(=O)/C=C/c1cccc([N+](=O)[O-])c1 (stereo unspecified) | i
COC(=O)[C@H](C)NC(=O)Nc1ccccc1C(F)(F)F | 1.4
CCN=C(NCC)SC1CC(=O)N(c2cccc(OCC)c2)C1=O (stereo unspecified) | 0.0
COc1ccccc1NC(=O)N1CCCC1C(=O)Nc1ccc(NC(C)=O)cc1 (stereo unspecified) | i
CCOC(=O)c1c(C)c(C(=O)NCCCOC)c(C)n1C | 1.2
COc1ccc(N(CC(=O)Nc2ccc(F)c(Cl)c2)S(=O)(=O)c2c(C)noc2C)cc1 | i
Cc1noc(C)c1S(=O)(=O)N(CC(=O)NCc1ccc2c(c1)OCO2)c1ccc(C(C)C)cc1 | 0.1

Structure | H5N1 antiviral
O=S(=O)(c1cc(F)cc(F)c1)N1CCN(c2ncccn2)CC1 | 0.2
CCOC(=O)CNC(=O)Nc1cccc(Cl)c1C | 0.6
CC(=O)c1cc2c(cc1NS(=O)(=O)c1ccc(C)cc1)OCO2 | i
O=C(CN1C2CCC1CC(NC(=O)Nc1ccccc1)C2)NCc1ccco1 (stereo unspecified) | 1.9
COc1ccc(C(=O)NC(=S)Nc2cccc(Cl)c2N2CCOCC2)cc1[N+](=O)[O-] | i
CCCCCCN1C2=NCCN2c2ccccc21 | i
Cc1cc(C)c2nc(N3CCCC(C(=O)NCCN4CCOCC4)C3)sc2c1 (stereo unspecified) | i
CCOC(=O)c1sc(N)c(C(=O)OCC)c1COC(=O)C1CC(=O)N(Cc2ccco2)C1 (stereo unspecified) | i
CCCC1CCc2c(sc(N)c2C(N)=O)C1 (stereo unspecified) | 0.4
c1ccc(CC2CCN(C(c3cccs3)c3nnnn3C3CCCC3)CC2)cc1 (stereo unspecified) | 0.6
CC(=O)Nc1ccc(OCC(=O)c2ccc(C)cc2C)cc1 | 3.4
O=C(CN1C(=O)NC2(CCCCC2)C1=O)NCCC1=CCCCC1 | i

Some values from the results shown.
Result of c1ccc(CC2CCN(C(c3cccs3)c3nnnn3C3CCCC3)CC2)cc1 (stereo unspecified) in H5N1 antiviral: 0.6
Result of CC(=O)Nc1ccc(OCC(=O)c2ccc(C)cc2C)cc1 in H5N1 antiviral: 3.4

(next part)
Structure | H5N1 antiviral
CCOC(=O)Cc1c(C)nc(-c2ccccc2)[nH]c1=O | 0.2
Cc1cc(C(F)(F)F)nn1CCCNC(=O)c1cnccn1 | i
c1nc(COc2nsnc2N2CCOCC2)cs1 | i
CC(C)c1ccc(NC(=O)CCN2C(=O)c3ccc([N+](=O)[O-])cc3C2=O)cc1 | i
CCOC(=O)/C(C#N)=C1/SC(C)C(=O)N1c1ccc(Br)cc1 (stereo unspecified) | i
O=C(COc1ccc(Cl)cc1)Nc1ncccn1 | 0.0
O=C(Nc1cccc2cccnc12)c1cccc(N2C(=O)CCC2=O)c1 | i
C/C(=N\NC(=O)c1ccccn1)C12CC3CC(CC(C3)C1)C2 | 5.1
O=C(NC1CC2CCCC(C1)N2Cc1cccs1)N1CCOCC1 (stereo unspecified) | 0.6
O=C(CCCSc1nc2ccccc2s1)Nc1nccs1 | 0.9
CS(=O)(=O)N1CCC(C(=O)Nc2ccc3c(c2)OCO3)CC1 | i
CCOc1ccccc1NC(=O)CSc1nnc(-c2ccco2)n1Cc1ccco1 | i

3 compounds out of the list, arranged by count of non-hydrogen atoms, lowest first:
Structure | H5N1 antiviral
CCOC(=O)Cc1c(C)nc(-c2ccccc2)[nH]c1=O | 0.2
Cc1cc(C(F)(F)F)nn1CCCNC(=O)c1cnccn1 | i
O=C(NC1CC2CCCC(C1)N2Cc1cccs1)N1CCOCC1 (stereo unspecified) | 0.6

Additional entries follow:
Structure | H5N1 antiviral
Cc1nnc(NC(=O)NC(C)N2C(=O)C3C4C=CC(C4)C3C2=O)s1 (stereo unspecified) | i
CC(C)c1ccc(Oc2cccc(C(=O)/C(C#N)=C/N(C)C)c2)cc1 | 0.3
O=C(Nc1ccc2nc[nH]c2c1)c1ccco1 | 1.3
COCCn1nnnc1CN1CCC(O)(c2cccc(C(F)(F)F)c2)CC1 | i
c1ccc(Sc2cnc3ccccc3n2)cc1 | 1.8
CCOC(=O)c1c(C)oc2c(F)c(F)c(F)c(F)c2c1=O | i
NC(=O)CC1NC(=O)c2ccccc21 (stereo unspecified) | i
COc1ccc(OC)c(S(=O)(=O)N(C)CC(=O)N2CCN(c3ccccc3)CC2)c1 | 1.4
COc1ccc(CCNC(=O)CCN2C(=O)COc3ccccc32)cc1OC | 0.2
COC(=O)c1ccc(/C=N\N2CCN(Cc3ccc(C)cc3)CC2)cc1 | i
Cc1nonc1NC(=O)CSc1nc2cc(Cl)ccc2c2c1CCCC2 | 2.5
COc1ccc(C(=O)COC(=O)CN2CC(=O)Oc3ccccc32)cc1Br | 0.6

Structure | H5N1 antiviral
CCN(CC)S(=O)(=O)c1ccc2[nH]cc(C(=O)NCCc3ccc(OC)c(OC)c3)c(=O)c2c1 | i
O=C(c1ccc(CS(=O)(=O)c2ccc(Br)cc2)o1)N1CCC2(CC1)OCCO2 | 1.1
COc1cccc(/C=N/Nc2ncnc3scc(-c4ccccc4)c23)c1OC | i
Cc1cc(NC(=O)c2ccco2)no1 | 1.9
CCN(CC)CCCNC(=O)c1nn(-c2cccc(OC)c2)c(=O)c2ccccc12 | 0.4
COC(=O)[C@H](CCSC)NC(=O)N1CCN(c2cccc(C(F)(F)F)c2)CC1 | i
CN(C)S(=O)(=O)c1cccc(-c2nnc(-c3ccccc3)o2)c1 | i
Cc1ccc(OCC(=O)NN2C(=O)c3ccccc3C2=O)c(C)c1 | i
Cc1ccc(SCC(=O)N2c3ccccc3Sc3ccccc32)cc1 | 1.0
CCn1c(-c2cccnc2Cl)nc2cc(Cl)c(Cl)cc21 | i
COc1cccc(-c2noc(Cn3nc(C)c([N+](=O)[O-])c3C)n2)c1 | i
CC(C)(C)NC(=O)COc1ccc(CNc2ccc3[nH]c(=O)[nH]c3c2)cc1 | 1.1

Structures listed so far with a tert-butyl group, in the order listed:
Structure | H5N1 antiviral
Cc1ccc(N2CC(C(=O)OCC(=O)C(C)(C)C)CC2=O)cc1C (stereo unspecified) | 1.1
CC(C)(C)NC(=O)COc1ccc(CNc2ccc3[nH]c(=O)[nH]c3c2)cc1 | 1.1

(listing goes on)
Structure | H5N1 antiviral
Cc1ncoc1C(=O)NCc1ccccc1Cl | i
O=C(CSCc1cccc(CSCC(=O)Nc2ccc3ccccc3c2)n1)Nc1ccc2ccccc2c1 | 0.1
Cc1ccc2occ(/C=C/C(=O)O)c(=O)c2c1 | i
COc1ccc(S(=O)(=O)N2CCCCCC2)cc1N(C)S(=O)(=O)c1ccc(Cl)cc1 | 1.4
N=c1c2c(-c3ccccc3)c(-c3ccccc3)oc2ncn1CCN1CCOCC1 | i
COc1ccc(CN(Cc2ccccn2)C(=O)CN2C(=O)C(C)Oc3ccccc32)cc1 (stereo unspecified) | 0.6
COc1ccc(S(=O)(=O)N2CCC(=O)N2)cc1 | i
Cc1nnc(C)n1/N=C/c1ccc(C(=O)O)cc1 | i
COc1cc(C(=O)CSc2nnc(-c3ccc(O)cc3)n2CC2CCCO2)ccc1NC(C)=O (stereo unspecified) | 0.4
Cc1ccc2nc(-c3ccc(NC(=O)Cc4cccs4)cc3)[nH]c2c1 | i
CC1C=CC(C)C(C(=O)O)C1C(=O)O (stereo unspecified) | 1.0
O=C(Cc1ccccc1F)Nc1nc(-c2cccs2)cs1 | i

Structure | H5N1 antiviral
CCOC(=O)c1sc(NC(=O)CN2CCCC2)c(C(=O)OCC)c1C | 1.7
Nc1nc(-c2ccc(Br)cc2)cc(C(F)(F)F)n1 | 1.4
c1ccc(CN2CCN(c3ncnc4c3[nH]c3ccccc34)CC2)cc1 | i
COc1ccc(-c2cc(C3CCN(c4ccc(C(C)=O)cc4[N+](=O)[O-])CC3)[nH]n2)cc1 | i
Cc1oc(-c2ccccc2)cc1C(=O)Nc1cccc2ccccc12 | i
O=C(COc1ccc(S(=O)(=O)NCc2ccccc2)cc1)NCC1CCCO1 (stereo unspecified) | i
Cc1ccc(NCc2nnc3n2CCCCC3)cc1 | i
Clc1cccc(N2CCN(CCNc3nc4ccccc4n4cnnc34)CC2)c1 | 2.0
CCOC(=O)C1CCN(C(=O)CNS(=O)(=O)c2cccs2)CC1 | 0.3
O=C(COC(=O)c1cnccn1)c1ccc2c(c1)CCCC2 | i
CC(OC(=O)Cc1coc2cc3c(cc12)CCC3)C(=O)NCc1ccc2c(c1)OCO2 (stereo unspecified) | i
CC(=O)NC(NC(C)=O)c1ccc(Br)cc1 | i

Structure | H5N1 antiviral
CCn1c(SCC(=O)Nc2cccc(OC)c2)nnc1-c1ccc(Cl)cc1 | i
O=[N+]([O-])c1cc(S(=O)(=O)C(F)(F)F)ccc1Sc1nc2ccccc2[nH]1 | i
O=C(Cc1coc(-c2ccc(F)cc2)n1)Nc1ccccc1 | i
CCOC(=O)c1sc(NC(=O)CCN2C(=O)c3cccc([N+](=O)[O-])c3C2=O)c(C(=O)OCC)c1C | i
CCOC(=O)c1sc(NC(=O)CSc2ccccn2)c(C#N)c1C | 0.8
c1ccc(-c2nnc(SCc3nc4ccccc4[nH]3)n2Cc2ccco2)nc1 | 0.8
COc1ccc(S(=O)(=O)NCc2ccc(C)cc2)cc1 | i
O=C(Cc1ccc(Cl)cc1)Nc1ccc(N2CCN(C(=O)c3ccco3)CC2)c(Cl)c1 | i
COc1ccc(NC(=O)CCC(=O)c2ccc(-c3ccccc3)cc2)cc1 | i
CCN(CC)S(=O)(=O)c1ccc2c3c(cccc13)C(=O)N2 | 1.7
COc1ccc(S(=O)(=O)NC(CC(=O)NCc2ccco2)C(C)C)cc1 (stereo unspecified) | i
O=C(C1CCC(=O)N1C1CCCCC1)N1CCN(c2ccc(F)cc2)CC1 (stereo unspecified) | i

Structure | H5N1 antiviral
Cc1ccc(N(CC(=O)O)S(C)(=O)=O)cc1Cl | i
N#CN(CC(N)=O)c1nc(N2CCCCC2)nc(N2CCCCC2)n1 | 2.0
NC(=O)C1CCN(CC(=O)c2c[nH]c3ccc(F)cc23)CC1 | i
Cc1nc(SCC(=O)Nc2ccc(F)cc2)c(C#N)c(C)c1CC(=O)c1ccc(Br)cc1 | 0.7
CCOC(=O)C1CCCN(C(=O)CC(C)c2ccccc2)C1 (stereo unspecified) | i
Cn1c(C(C#N)C(=O)Cc2cccc3ccccc23)nc2ccccc21 (stereo unspecified) | i
CSc1ccccc1-n1nnnc1SCC(=O)Nc1cc(C)ccc1C | i
Cc1cc(C(=O)NCc2cccnc2)n(-c2ccccc2)n1 | 0.7
COc1ccccc1OC(=O)C1CC(=O)N(c2ccc(Cl)cc2)C1 (stereo unspecified) | 0.3
Cc1ccc(-n2nnnc2SCC(=O)Nc2ccc3c(c2)COC3=O)cc1C | i
CC(=O)Nc1ccc(NC(=O)COC(=O)c2ccc(C)s2)cc1 | 0.1
Cc1nn(Cc2ccc(Cl)cc2)c(C)c1NC(=O)c1noc2c1CCCCC2 | 3.6
CCOC(=O)c1c(NC(=O)Cn2nnc3ccccc32)sc2c1CCC(C)C2 (stereo unspecified) | i
O=C(O)C1CSC2c3ccccc3C(=O)N12 (stereo unspecified) | 0.4
N#CC1=C(N)N2C(=C(C#N)C13CCCCC3)SC1CCCCC12O (stereo unspecified) | 8.6

Looked up one by one from the list above, 2 records:
Structure | H5N1 antiviral
CCOC(=O)c1c(NC(=O)Cn2nnc3ccccc32)sc2c1CCC(C)C2 (stereo unspecified) | i
COc1ccccc1OC(=O)C1CC(=O)N(c2ccc(Cl)cc2)C1 (stereo unspecified) | 0.3
